Compound activity: PubChem BioAssay, National Center for Advancing Translational Sciences (NCATS)
LT uptake inh – qHTS Assay for Anthrax Lethal Toxin Internalization | Potency, µM (top dose mostly 40 µM), inactives show at the top dose activity change, negative = inhibition, usual class: inhibitors | AID 912, 2007 | Cells, anthrax lethal toxin internalization, FRET ratio (460/530) | 70,000 tested, 0.67% active; active = well fitted falling ratio curve with the 530 nm signal flat; inconclusive = other ratio curves, or a change in one channel alone; inactive = flat curves in the ratio and both channels; the % refers to the ratio; further: on the % scale 0 is the no-effect control and ±100 the full control effect; nearly all actives have a fitted effect of over 50% in size; tested in ME-180 cells; beta-lactamase reporter
SmPrx2 inh – Schistosoma Mansoni Peroxiredoxins (Prx2). Potency, µM. 65,000 tested, 0.07% active. S. mansoni Prx2 activity coupled to TGR/GSH (TGR is thioredoxin glutathione reductase), NADPH fluorescence loss, qHTS; some inactives read as strong as hits. AID 448, 2006; active means full or partial inhibition curve with a strong effect at the top dose; inconclusive means weaker partial or single-point curve; inactive means no accepted curve; further: series up to 57 µM; many of its hits are not listed in these tables
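Prx2 activity was followed as the loss of NADPH fluorescence (ex 365/em 450 nm), read every 30 sec for 8 min after H2O2 start. The enzyme mix (50 nM Prx2, 25 nM TGR, GSH, NADPH; pH 7.4 phosphate buffer) was incubated with compound for 15 min at room temperature first.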
An asterisk follows results filed as active; ? = inconclusive; nt = not tested or not shown; [ ] = remark or other dose. Potency means the concentration at half of the fitted maximal effect. A portion of the library; rates above refer to the full screens.

compound | LT uptake inh | SmPrx2 inh
NC(=O)CSc1nnc(COc2ccccc2)n1CCc1ccccc1 | -3% | >57
ON(CCc1ccccn1)Cc1ccccc1 | 3%[8 µM] | >57
Clc1ccccc1-c1ccc2ncnc(N3CCNCC3)c2c1 | -20% | >57
O=C(N/N=C1/C[C@@H](O)[C@@H](O)[C@@H]2[C@@H]3C(=O)N(Cc4ccccc4)C(=O)[C@H]3CC[C@@H]12)OCc1ccccc1 | -6%[8 µM] | nt
COc1ccc(S(=O)(=O)N2CCC(C(=O)NCc3ccccn3)CC2)cc1C | nt | >57
O=S(=O)(Nn1cnnc1)c1ccccc1Cl | 8% | >57
COC(=O)[C@@]1(Cc2ccc(F)cc2)[C@H]2c3cc(C(=O)N(C)C)n(Cc4cc(C)n(C)n4)c3C[C@H]2CN1C(=O)c1ccccc1 | -2% | >57
CCN(CCCNC(=O)c1cn(CC)c2ccc(S(=O)(=O)N(C)C)cc2c1=O)c1cccc(C)c1 | ? | >57
Cc1cccc(NC(=O)C2CCCN2S(=O)(=O)c2ccc(F)cc2)c1C (centres undefined) | -19% | >57
O=C(Nc1ccc(N2CCN(C(=O)c3ccco3)CC2)cc1)c1ccc2c(c1)OCO2 | -6% | >57
CC1(C)CC(NC(=O)C23CCC(C)(C(=O)C2)C3(C)C)CC(C)(C)N1 (centres undefined) | -6% | nt
CCN(CC)CCNC(=O)c1ccc(N2CCCCC2)c(NS(=O)(=O)c2ccc(C)cc2)c1 | 13% | >57
COC1CCC(C(=O)c2ccc3nc4c(cc3c2)CCCO4)CC1 (centres undefined) | -7% | nt
CCN1C(=O)/C(=C2\C=Cc3ccccc3N2CC)OC1=S | -6% | >57
Cc1cc(C)nc(-n2nc(C)c(Oc3ccccc3O)c2C)n1 | 9% | nt
CCC(C)(C)c1ccc(Oc2cccc(C(=O)O)c2)cc1 | 1%[8 µM] | >57
Cn1c(SCC(=O)N2CCN(c3ccccc3)CC2)nnc1-c1cc2ccccc2o1 | -7% | >57
O=C(Cc1ccc(-n2c(=O)[nH]c3ccccc3c2=O)cc1)N1CCN(c2ccccc2)CC1 | 5% | >57
CN(C(=O)c1cccnc1)c1nnc(-c2cccnc2)s1 | -14% | >57
COc1cc(-c2nnc(Cn3cc(C(F)(F)F)ccc3=O)o2)cc(OC)c1OC | -8% | >57
O=C(O)C1C2C=CC3(CN(CC(O)COc4ccccc4)C(=O)C13)O2 (centres undefined) | 0% | >57
Cn1c(Cn2c(=O)sc3ccccc32)nnc1SCc1ccccc1 | -15% | >57
CCn1c(CSc2ncccn2)nnc1SCC(=O)N1CCc2ccccc21 | 8% | >57
Fc1ccc(N2CCN(C(c3cccs3)c3nnnn3CCc3ccccc3)CC2)cc1 (centres undefined) | ? | >57
COc1cc(CC(=O)Nc2ncc(C)s2)cc(OC)c1OC | 8% | >57

compound | LT uptake inh | SmPrx2 inh
Clc1ccc(OCc2nn3c(C4CCCCC4)nnc3s2)c(Cl)c1 | 2% | >57
CCCC(=O)NCCc1c2n(c3ccc(OC)cc13)Cc1ccccc1-2 | -2% | >57
Cn1c(=O)n(C)c2cc(C(=O)Nc3ccc4c(c3)OCO4)ccc21 | -21% | >57
COc1cccc(Cn2c(=O)cnc3cnc(N4CCOCC4)nc32)c1 | ? | >57
Cc1[nH]c2ccccc2c1C(=O)CSCC(=O)O | -5% | >57
Nc1ncnc2c1ncn2CCN1CCOCC1 | 4% | >57
Cc1ccc(NC(=O)CNS(=O)(=O)c2cccs2)cc1F | -2% | >57
CC(C)CO/N=C1/C[C@@H](O)[C@@H](O)[C@@H]2[C@H]3C(=O)N(c4ccc(F)cc4F)C(=O)[C@@H]3CC[C@@H]12 | ? | nt
Cn1c(-c2ccc3nc(N)sc3c2)nc2cc(N)ccc21 | ? | >57
CCOC(=O)Cn1c(=O)n(Cc2ccco2)c(=O)c2ccc(C(=O)NCCc3ccccc3)cc21 | 2% | >57
Cc1noc(NS(=O)(=O)c2ccc(N3C(=O)c4ccccc4C3=O)cc2)c1C | -7% | >57
O=C(CCCn1c(SCC(=O)NC2CCCC2)nc2ccccc2c1=O)NCC1CCCO1 (centres undefined) | 0% | >57
CN(C)C(=O)c1nnc(Cc2ccc(Cl)cc2)o1 | 3% | >57
COc1ccc(N(C(=O)c2ccco2)S(=O)(=O)c2cccs2)cc1 | -8% | >57
O=C(NCc1ccco1)c1cc(-c2ccccn2)nc2ccccc12 | 7% | >57
NCCNC(=O)c1ncsc1-c1cccc(F)c1 | 0% | >57
CCCn1c(C)nc2c(NC3CCN(Cc4ccccc4)CC3)nc(C)nc21 | 1% | nt
COC(=O)c1c(-c2ccc(F)cc2)noc1N | 0% | >57
CCOC(=O)C1(N(CC)CC)Sc2cc(C)ccc2NC1=O (centres undefined) | 14% | >57
N/C(CC(=O)NCCOc1ccccc1)=N\O | 4% | >57
COc1cc(OC)c(/C=C2/C(=O)Nc3ccccc32)c(OC)c1 | ? | >57
CN1C(=O)N(C)C2C1N(C)S(=O)(=O)N2C (centres undefined) | -8% | >57
O=C(Nc1cccnc1N1CCOCC1)c1cc2ccccc2oc1=O | -7% | >57
COc1cccc(-c2cc(C(=O)NCc3ccc(Cl)cc3)no2)c1 | 5% | nt
Cc1ccc(S(=O)(=O)N2CCOCC2)cc1C(=O)N1CCOCC1 | -5% | >57

compound | LT uptake inh | SmPrx2 inh
Cn1cccc1Cc1nnc(SCC(=O)Nc2ccc(F)cc2F)n1-c1ccc(F)cc1 | -17% | >57
c1ccc(Nc2nc3ccccc3[nH]2)nc1 | ? | >57
CC(C)C(=O)Nc1ccc2c(c1)nc1n2CCSC1 | -1% | >57
O=C(CCn1cnc2ccccc2c1=O)Nc1cccc(Cl)c1 | -19% | >57
CCOC(=O)N1CCC(n2c(SCC(=O)Nc3nccs3)nc3ccsc3c2=O)CC1 | 12% | >57
O=C(NCc1ccc(F)cc1)C1CCN(S(=O)(=O)N2CCCCC2)CC1 | -10% | >57
COc1ccc(CN(C(=O)c2ccco2)c2ccc(Br)cc2)cc1OC | ? | >57
C[C@@]12CC[C@H]3[C@@H](CC[C@@H]4C[C@H]5S[C@H]5C[C@]43C)[C@H]1CC[C@H]2O | -6%[3.58 µM] | >57
CCOc1ccccc1C1CC(c2ccc(Br)cc2)Nc2nc(N)nn21 (centres undefined) | -10% | >57
CCOC(=O)CN(C(=O)CNC(=O)c1ccco1)C(C(=O)NC1CCCC1)c1ccccc1OCC (centres undefined) | -2% | >57
CCN1C(=O)[C@H]2[C@H]3[C@H](O)[C@H](O)C/C(=N/NC(=O)OCc4ccc(OC)cc4)[C@@H]3CC[C@@H]2C1=O | -4%[8 µM] | nt
CCOCCCN1CC(C(=O)NCCc2ccc(C)cc2)CC1=O (centres undefined) | 3% | >57
Cc1ccc(CN2C(=O)CCC2C(=O)NC(C)C)cc1 (centres undefined) | 3% | >57
Cc1cccc(C(OC(=O)c2ccco2)C(=O)NCc2ccccc2)n1 (centres undefined) | ? | >57
Cc1ccccc1C1CC(c2ccc(F)cc2)Nc2nc(N)nn21 (centres undefined) | ? | >57
CCOC(=O)C1CCCN(C(=O)CN2C(=O)COc3ccc(C(C)(C)C)cc32)C1 (centres undefined) | -3% | >57
CC(C)(C)N(Cc1cc2ccccc2[nH]c1=O)C(=O)c1cccnc1 | 8% | >57
CCOC(=O)c1c(C)n(C)c2ccc(OCC(O)CN3C(=O)c4ccccc4S3(=O)=O)cc12 (centres undefined) | nt | >57
O=C(CSc1nnc(CNC(=O)c2cccs2)o1)NCc1ccc(F)cc1 | 9% | >57
CCOC(=O)C1=C(O)CSC1=Nc1ccc(Cl)cc1 | 3% | nt
C/C(=N/NC(=O)c1ccncc1)c1ccccc1Cl | -3%[8 µM] | >57
O=C(Oc1c(Cl)cc(Cl)c2cccnc12)N1CCCCC1 | -18% | nt
c1n[nH]c(SCCCCSc2ncn[nH]2)n1 | -2% | >57
Cc1ccc(S(=O)(=O)N2CCN(C(=O)CSc3nnc(C)c(=O)[nH]3)CC2)cc1 | -1% | >57
O=C(NCCC1=CCCCC1)C1CC(=O)N(C2CCCCCC2)C1 (centres undefined) | -12% | >57

compound | LT uptake inh | SmPrx2 inh
CC(=O)c1cc2c(cc1NC(=O)CN1CCOCC1)OCO2 | 17% | >57
CC(=C1C2C=CC1C1C(=O)NC(=O)C21)c1ccccc1 (centres undefined) | 7% | >57
COC(=O)Cn1cnc2c(nnn2-c2ccc(C)cc2)c1=O | -19% | >57
O=C(CSc1nc2ccccc2c(=O)n1Cc1ccco1)NCc1ccccc1 | -9% | >57
Cc1nnc(NC2=NCCCCC2)o1 | 6% | >57
O=C(c1ccc2c3c(cccc13)CC2)N1CCOCC1 | -2% | >57
O=C(Nc1ccc2c(c1)OCCO2)c1cc(-n2cnnc2)ccc1Cl | ? | >57
O=C1CC(c2ccc(Cl)cc2)n2nc(N3C(=O)CCC3=O)nc2N1 (centres undefined) | -3% | >57
CSCC[C@H](NC(=O)NCc1cccs1)C(=O)O | 10% | >57
CCCn1c(-c2ccc(F)cc2)nc2c(NCCCN3CCOCC3)nc(C)nc21 | 0% | nt
CC1(C)CC(=O)C2=C(C1)OC(N)=C(C#N)C2c1ccc(OC(=O)N2CCOCC2)cc1 (centres undefined) | -8% | nt
Cc1cccc(CNc2nc(-c3cccnc3)nc3ccccc23)c1 | ? | >57
Cc1cc(NC(=O)c2sccc2C)n(-c2cccc(Cl)c2)n1 | -11% | >57
c1ccc(-n2nnnc2Oc2ccc(-n3ccnc3)cc2)cc1 | -2% | >57
Cc1ccc(-n2ncc3c(=O)n(CC(=O)NC4CCCCC4)cnc32)cc1 | -4% | >57
CCC1CCCCN1CCNC(=O)CNS(=O)(=O)c1ccc2nc(C)sc2c1 (centres undefined) | -6% | >57
CCCS(=O)(=O)N1CCC(C(=O)NC2CCC(C)CC2)CC1 (centres undefined) | 3% | >57
CCNC(=O)CN(c1ccc(C)cc1)S(=O)(=O)c1ccc(SC)cc1 | 4% | >57
O=C(O)Cc1c(O)ccc2ccccc12 | 9%[8 µM] | >57
CC(C)C[C@@H](CC(=O)N[C@H](CC(=O)N[C@@H]1CCNC[C@H]1C(=O)N[C@H](CC(=O)N[C@@H](CCC(=O)O)CC(=O)O)Cc1c[nH]c2ccccc12)C(C)C)NC(=O)[C@@H]1CCCC[C@H]1N | 3% | >57
Cc1ccc(CNC(=O)CSc2n[nH]c(N)n2)cc1 | 15% | >57
COc1ncc2nc(-c3cccs3)c(=O)n(CCc3ccccc3)c2n1 | ? | >57
O=C(Nc1cccc(Cl)c1)Nn1cnnc1 | -9%[8 µM] | >57
NC(=O)C/C=C\CC(N)=O | -12%[8 µM] | >57
COC(=O)[C@H]1C(=O)c2ccccc2O[C@@](C(=O)OC)(c2ccccc2)[C@@H]1c1ccccc1 | ? | nt

Reformatted with each value named: 4 of the compounds above
> COC(=O)Cn1cnc2c(nnn2-c2ccc(C)cc2)c1=O
  LT uptake inh: -19%; SmPrx2 inh: >57
> O=C(CSc1nc2ccccc2c(=O)n1Cc1ccco1)NCc1ccccc1
  LT uptake inh: -9%; SmPrx2 inh: >57
> Cc1nnc(NC2=NCCCCC2)o1
  LT uptake inh: 6%; SmPrx2 inh: >57
> O=C(c1ccc2c3c(cccc13)CC2)N1CCOCC1
  LT uptake inh: -2%; SmPrx2 inh: >57

Following part:
compound | LT uptake inh | SmPrx2 inh
C(=N\n1cnnc1)/c1ccc(OCc2ccccc2)cc1 | -7% | nt
Cc1ccc2c(c1)C(=O)[C@@]1(O)CCN(c3ccccc3)C1=N2 | 11% | >57
COc1ccc(NC(=O)c2nc3nc(C)cc(C(F)F)n3n2)cc1OC | 6% | >57
C=C[C@@H]1CN2CC[C@H]1C[C@H]2[C@@H](O)c1ccnc2ccccc12 | ? | >57
O=c1c2c(-c3ccco3)csc2nc(SCc2cn3cccnc3n2)n1-c1ccccc1 | ? | >57
O=C(c1noc2c1CCCCC2)N1CCOCC1 | -6% | >57
COc1ccc(CC2C(=O)OC(C)(C)OC2=O)cc1 | 1% | >57
CN(C)c1ccc(N/C=C/C(=O)c2ccc(F)cc2)cc1 | -25% | >57
O=C(/C=N/O)Nc1cccnc1 | -4% | >57
Cc1c(C#N)c2ncnc(N)c2n1-c1ccccc1 | -7% | >57
Cc1cc(N)c2cc(NC(=O)Nc3ccc4nc(C)cc(N)c4c3)ccc2n1 | -8%[8 µM] | >57
CC(NC(=O)CN1CCN(Cc2ccc(Cl)cc2)C1=O)c1ccc2c(c1)OCCO2 (centres undefined) | -18% | >57
CC(Cc1ccccc1)C(=O)NCc1ccncc1 (centres undefined) | 6% | nt

Complete entries as entered above. Order of screens: LT uptake inh, SmPrx2 inh
`C=C[C@@H]1CN2CC[C@H]1C[C@H]2[C@@H](O)c1ccnc2ccccc12` across the screens: ?, >57
`COc1ccc(CC2C(=O)OC(C)(C)OC2=O)cc1` across the screens: 1%, >57
